Screening data deposited in PubChem BioAssay by PCMD.
Calb biofilm kill = mixtures killing C. albicans biofilm. C. albicans biofilm persisters + clotrimazole, fluorescence viability; primary screen in compound mixtures of four per well. inhibition, % at 7.6 µM. AID 1242. actives 0.02% (n = 120,000);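 active = inhibition above 30.3% in the primary screen of four-compound pools, then above 30% when the compound was retested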;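 also: compounds exposed to preformed 24 h biofilms for 48 h; the number belongs to the whole pool; some results filed as inactive read as strong as hits; inactives centre near 12; 0% = biofilm with clotrimazole alone and 100% = kill control; retested singly at about 60 µM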
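System: C. albicans CAF4-2 wild-type biofilms; Medium: RPMI/MOPS medium, pH 7.0; Reagent: Clotrimazole, 50 µg/mL; Times: biofilm formation 24 h, compound exposure 48 h, 37 °C; Detection: 2-h Alamar Blue fluorescence, 535/590 nm excitation/emission; Evaluation: percent inhibition of biofilm viability.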
The depositor's hits bear a star. The list is partial (hit frequency here may not be typical).

SMILES | Calb biofilm kill
CCc1nnc(NC(=O)c2cc(C)nc3ccccc23)s1 | -2.1
O=C(CN1C(=O)c2ccccc2S1(=O)=O)c1ccccc1 | 8.8
CC1CCN(c2c(NCc3ccc(C(=O)N4CCN(C5CCCCC5)CC4)cc3)c(=O)c2=O)CC1 | 10.1
Cc1ccc(NC(=O)CCCCCN2C(=O)c3ccccc3C2=O)nc1 | 6.5
C=C1CCN([C@H](C(=O)OCc2ccc(C)cc2)C(C)C)S(=O)(=O)c2ccccc21 | 31.2
COc1ccc(CN(Cc2ccc(C(=O)O)cc2)C(=S)Nc2ccccc2C)cc1OC | 4.0
Cn1c(SCC(=O)N2CCCc3ccccc32)nc2ccccc2c1=O | 3.0
COc1cc(/C=N/n2cnnc2)ccc1Oc1nc(Cl)ncc1F | 18.4
NCCCCCc1nnc(SCC(N)=O)o1 | 15.6
CCOC(=O)CN(Cc1sccc1C)C(=O)Nc1ccc(OCC)cc1 | 13.8
Cc1ccc(S(=O)(=O)Nc2ccc(-c3csc(-c4ccccc4)n3)cc2)cc1 | 25.2
N#Cc1ccc(C(=O)OCC(=O)Nc2ccc(S(N)(=O)=O)cc2)cc1 | 16.3
C#CCSc1nnnn1-c1ccc(Br)c(C)c1 | 14.2
COc1ccc(CCN2C(=NC(=O)C(C)C)SC3CS(=O)(=O)CC32)cc1OC (configuration not stated) | 20.3
CCc1ccc(C(=O)COC(=O)c2cncc(Br)c2)cc1 | 4.3
O=C(O)c1ccccc1C(=O)NNc1ccc(F)cc1F | 18.9
Cc1ccc2nc(-c3ccccn3)cc(C(=O)Nc3ccc4c(c3)OCO4)c2c1 | 11.2
CC(=O)Nc1ccc(NC(=O)C(Cc2ccccc2)NC(=O)C2CCCCC2)cc1 (configuration not stated) | 6.9
Cc1noc(NS(=O)(=O)c2ccc(NC(=O)c3cnc4n(c3=O)CCS4)cc2)c1C | 7.6
Cc1ccccc1-c1nn(-c2ccc(F)cc2F)cc1CNCCCO | 3.0
CCOc1ccc(Oc2ccc(S(=O)(=O)N3CCOCC3)cc2N)cc1 | 20.7
CSc1nc(C)cc(OCC(=O)N/N=C/c2ccccc2O)n1 | 18.3
CCC(C)c1ccc(NC(=S)NN2CCOCC2)cc1 (configuration not stated) | 1.1
CCCN(CCC)c1nc(C#N)nc(N(CCC)CCC)n1 | 20.5
O=c1c2ccccc2nc(COc2ccccc2)n1/N=C/c1cn[nH]c1-c1ccccc1 | 13.3
COc1ccc(NC(=O)c2ccccc2-c2ccccc2)cc1 | 12.4
CC(C)c1ccc(NC(=S)N2CCCC(c3ccc(F)cc3)=N2)cc1 | 6.1
COc1cc(C2C(C#N)=C(N)Oc3n[nH]c(-c4cccnc4)c32)ccc1OCC(N)=O (configuration not stated) | 24.8
CCn1c(C)nc2cc(C(=O)NNC(=S)NC(=O)c3ccccc3)ccc21 | 9.8
CCOc1ccc2c(c1)C(=NNC(=O)c1ccncc1)c1cc(OCC)ccc1-2 | 8.4
COc1ccc2[nH]c(C(=O)Nc3ccc(C)c(F)c3)cc2c1 | 11.7
CCn1ccnc1CN(C)C(=O)CCc1nnc(CCC2CCCCC2)o1 | 4.6
Oc1c(N=NC(=S)Nc2ccccc2F)c2ccccc2n1Cc1ccc(Cl)cc1 | 11.3
CC(=O)Nc1cccc(NC(=O)c2ccc(Br)cc2)c1 | -0.2
CS(=O)(=O)N(Cc1ccccc1)c1ccc(C(=O)Nc2cccnc2)cc1 | 8.6
C[n+]1ccccc1C1CCCC/C1=N\NC(N)=S (configuration not stated) | 17.1
Cc1nn(C)cc1[C@@H]1C[C@H]2CN(Cc3cccc(Cl)c3)C(=O)[C@]23CCCN13 | -2.9
CCCCNC(=S)N(Cc1ccco1)Cc1cc2cc3c(cc2[nH]c1=O)OCCO3 | 20.1
O=C(NCCNc1ccc([N+](=O)[O-])cc1C(F)(F)F)c1ccccc1 | 8.8
O=C(CN1CCCC1=O)NC1C2CC3CC(C2)CC1C3 (configuration not stated) | 11.7
O=C(COC(=O)c1cnc(Cl)c(Cl)c1)NCCC1=CCCCC1 | 6.8
C=CCN1C(=O)c2ccc(C(=O)OCC(=O)N(C)C3CCCCC3)cc2C1=O | 10.9
COCCN(C(=S)Nc1ccc(Cl)cc1OC)C1CCN(C(C)=O)CC1 | 16.5
Cc1cc(Cl)ccc1OCC(=O)NNC(=O)c1cnccn1 | 17.8
COC(C[C@H]1O[C@H]1[C@@H](O)COCc1ccccc1)OC | 17.0
COc1ccc(C(C)=O)cc1CSc1nc2ccccc2c(=O)n1-c1ccccc1 | -1.7
O=C1CC(CC(=O)N/N=C/c2ccccc2[N+](=O)[O-])=NN1 | 15.8
NS(=O)(=O)c1ccc(Nc2nc(-c3ccc(F)cc3)cs2)cc1 | 10.3
COc1ccccc1NC(=O)c1cc([N+](=O)[O-])ccc1NCCN1C(=O)CCC1=O | 4.5
CCN(CC)c1nc(SCCOC(=O)Nc2ccccc2)nc(N(CC)CC)n1 | 15.0

(listing goes on)
SMILES | Calb biofilm kill
Nc1nonc1N/N=C/c1c(O)ccc2ccccc12 | 12.4
CCN1C(=O)S/C(=C/c2c(OCc3ccc(C(=O)O)cc3)ccc3ccccc23)C1=O | -2.7
COc1ccc([N+](=O)[O-])cc1N(CC(=O)N(C)C)S(C)(=O)=O | 15.7
CCN1CCCc2cc(CN(CCN3CCOCC3)C(=S)Nc3ccc(OC)cc3)ccc21 | 7.2
CC(=O)c1ccc(NC(=S)NCc2ccco2)cc1 | 14.5
O=[N+]([O-])c1ccc(Nc2ccccc2F)nc1 | 23.6
CN(C)CCN(C(=O)c1ccc(Br)s1)c1nc2cc3c(cc2s1)OCCO3 | 13.9
Cc1ccccc1-c1nnc(-c2cccs2)o1 | 8.0
CC(C)(C)n1ncc2c(=O)n(Cc3cccc(Cl)c3)cnc21 | 5.2
CC(C)Cc1nc(C#N)c(N2CCC(C(N)=O)CC2)o1 | 4.7
Cc1[nH][nH]c(=O)c1C(c1ccc(-c2cccc(C(=O)O)c2)o1)c1c(C)[nH][nH]c1=O | 8.9
O=C(Cc1nc2ccccc2[nH]1)c1ccc([N+](=O)[O-])cc1 | 16.8
[O-]c1n[n+](-c2ccc(Cl)cc2)cc2ccccc12 | 11.7
COc1ccc(C(=O)NNC(=O)C(=O)Nc2ccc(C)c(Cl)c2)cc1 | 8.7
O=C(C[n+]1cccc(CNC(=O)c2ccc(OC(F)F)cc2)c1)c1ccccc1 | 11.8
FC(F)(F)c1cccc(NC(=S)NCc2ccc(Cl)cc2)c1 | 27.5
Cc1ccc(C(=O)c2ccccc2C(=O)OCC(=O)Nc2ccc(SC(F)F)cc2)cc1 | 15.0
COc1ccc(-n2cc(-c3ccccc3)[nH]c2=S)cc1 | 5.2
CCC(C)c1ccc(NC(=O)CN(C)CC(=O)Nc2cccc(OC)c2)cc1 (configuration not stated) | 2.6
CCOC(=O)n1c(=O)n(Cc2cccc(C)c2)c2ccccc21 | -8.2
CN=c1scc(-c2ccc([N+](=O)[O-])cc2)n1/N=C/c1ccco1 | 15.3
C=CCN(c1ccccc1)S(=O)(=O)c1c(C)[nH]c(=O)[nH]c1=O | -3.8
Cc1ccc(NC(=O)c2cc(-n3cnnc3)ccc2Cl)c(C)c1 | 4.2
CCOC(=O)N1CCN(S(=O)(=O)c2ccc(F)c(C(=O)Nc3ccc(C(C)C)cc3)c2)CC1 | 12.6
Cc1c(C(=O)Nc2cccc(S(=O)(=O)N3CCCC3)c2)oc2ccccc12 | 20.3
Cc1ccc(C(=O)CCC(=O)N2CCN(C(=O)c3ccco3)CC2)cc1 | 12.3
Cc1sc2ncnc(N(C)CCc3ccccn3)c2c1C | 10.0
O=C1NC2(O)C(=O)c3ccccc3C2(O)N1 (configuration not stated) | 14.5
CN1CCN(c2oc(-c3ccc([N+](=O)[O-])cc3)nc2C#N)CC1 | 14.3
COc1ccc(C(=O)OCC(=O)c2ccc(C)c(S(=O)(=O)N3CCOCC3)c2)cc1OC | 3.0
Cc1ccc(S(=O)(=O)N(C)C)cc1NC(=O)COC(=O)c1ccc2c(c1)OCO2 | 10.0
COc1ccc(-c2ccnc3c(C#N)cnn23)cc1 | -6.7
CC(C(=O)NCC1CCCCC1)N(C)CC(=O)Nc1ccc(N2CCOCC2)cc1 (configuration not stated) | 13.1
COc1cccc(CNc2ccc(F)c([N+](=O)[O-])c2)c1O | 7.0
Cc1ccc(CCN=c2c([N+](=O)[O-])nn(-c3ccccc3)n2O)cc1 | 13.5
O=C(Nc1ccccc1)N1CCc2ccccc2C1 | -3.0
Cc1ccc(NC(=O)CCN2CCN(CCO)CC2)cc1Br | 15.2
CCC(C)N1CCCCC1C(=O)Nc1c(C)cc(C)cc1C (configuration not stated) | 20.1
CC(=O)/C(N=Nc1nc2c([nH]1)c(=O)n(C)c(=O)n2C)=C(\C)O | 18.8
CCC(C)(C)NC(=O)CN(CCc1cccc(C)c1)C(=O)c1csnn1 | 13.3
C/C(=N\Nc1ccc([N+](=O)[O-])cc1)c1ccc(-n2nncc2C)cc1 | 10.9
Cc1ccc(C2=NN(S(=O)(=O)c3ccccc3)C(c3ccccc3O)C2)cc1 (configuration not stated) | 18.2
CC(=O)Nc1ccc(NC(=O)Cn2c(=O)n(-c3ccccc3)c(=O)c3oc4ccccc4c32)cc1 | 13.5
COC(=O)[C@H](Cc1ccccc1)NC(=O)O[C@@H]1C(=O)c2cc(OC)ccc2O[C@H]1c1ccc(OC)c(Br)c1 | -1.9
COc1ccc2c(c1)C(C)=CC(C)(C)N2C(=O)CN1C(=O)CCC1=O | 8.4
CC1CC(C)CN(C(=O)Cn2c(SCC(=O)N3CCc4ccccc4C3)nc3ccccc32)C1 (configuration not stated) | 11.9
COc1ccc(-c2nnc(Nc3ccc(S(=O)(=O)Nc4nccs4)cc3)c3ccccc23)cc1 | 15.2
CCOC(=O)C(NC(C)=O)C(=O)Nc1ccc(C)cc1C (configuration not stated) | 6.2
C#CC[N+](C)(C)CC#Cc1ccc(Cl)cc1 | 17.5
O=C(CCc1ccccc1)Nc1ccccc1[N+](=O)[O-] | 9.2

(listing goes on)
SMILES | Calb biofilm kill
O=C(C1CCCO1)N1CCN(C(=S)Nc2ccc(Cl)cc2)CC1 (configuration not stated) | 6.0
O=C(Nc1ccc(S(=O)(=O)N2CCOCC2)cc1)c1ccc(=O)[nH]c1 | 12.7
CCOP(=O)(Nc1ccc2oc(=O)c3ccccc3c2c1)OCC | 12.3
O=C(NCCN1C(=O)S/C(=C\c2ccc(OC(F)F)cc2)C1=O)c1cnccn1 | 18.2
Cc1ccc(CNC(=O)CSc2ccc(-c3ccco3)nn2)cc1 | 14.8
Cc1nc(-c2ccc3c(c2)CCC(=O)N3)cs1 | 10.1
CC(C)n1c(O)c(N=NC(=O)CNC(=O)CCc2ccccc2)c2ccccc21 | 19.6
O=C(Nc1cc(S(=O)(=O)N2CCOCC2)ccc1N1CCOCC1)c1cn2ccccc2n1 | 12.7
COC(=O)c1ccc(N2CCN(C(C)=O)CC2)c(NC(=O)COc2ccccc2C)c1 | 7.5
CCOc1ccc(-n2cnc3scc(-c4ccc(OC)c(OC)c4)c3c2=O)cc1 | 24.0

Looked up by structure from the list above (2):
SMILES | Calb biofilm kill
COC(=O)c1ccc(N2CCN(C(C)=O)CC2)c(NC(=O)COc2ccccc2C)c1 | 7.5
CC(C)n1c(O)c(N=NC(=O)CNC(=O)CCc2ccccc2)c2ccccc21 | 19.6

Additional records.
SMILES | Calb biofilm kill
COc1cc(C(=O)NCc2ccccc2)ccc1OC(F)F | 25.1
C#CCOC(=O)Nc1ccc(OCC(F)(F)F)nc1 | 21.6
CCOC(=O)c1ccc(NC(=O)C2CCC(CNc3c(N4CCOCC4)c(=O)c3=O)CC2)cc1 (configuration not stated) | 8.4
Cc1cc(=O)c2cc(Br)ccc2n1CC(=O)NCc1ccccc1 | 19.2

In the list so far, 13 have a Cl atom:
SMILES | Calb biofilm kill
COc1cc(/C=N/n2cnnc2)ccc1Oc1nc(Cl)ncc1F | 18.4
Oc1c(N=NC(=S)Nc2ccccc2F)c2ccccc2n1Cc1ccc(Cl)cc1 | 11.3
Cc1nn(C)cc1[C@@H]1C[C@H]2CN(Cc3cccc(Cl)c3)C(=O)[C@]23CCCN13 | -2.9
O=C(COC(=O)c1cnc(Cl)c(Cl)c1)NCCC1=CCCCC1 | 6.8
COCCN(C(=S)Nc1ccc(Cl)cc1OC)C1CCN(C(C)=O)CC1 | 16.5
Cc1cc(Cl)ccc1OCC(=O)NNC(=O)c1cnccn1 | 17.8
CC(C)(C)n1ncc2c(=O)n(Cc3cccc(Cl)c3)cnc21 | 5.2
[O-]c1n[n+](-c2ccc(Cl)cc2)cc2ccccc12 | 11.7
COc1ccc(C(=O)NNC(=O)C(=O)Nc2ccc(C)c(Cl)c2)cc1 | 8.7
FC(F)(F)c1cccc(NC(=S)NCc2ccc(Cl)cc2)c1 | 27.5
Cc1ccc(NC(=O)c2cc(-n3cnnc3)ccc2Cl)c(C)c1 | 4.2
C#CC[N+](C)(C)CC#Cc1ccc(Cl)cc1 | 17.5
O=C(C1CCCO1)N1CCN(C(=S)Nc2ccc(Cl)cc2)CC1 (configuration not stated) | 6.0
